Screening data as filed in PubChem BioAssay.
Cruzain inh Det: qHTS Assay for Promiscuous and Specific Inhibitors of Cruzain (with detergent); Cruzipain (Trypanosoma cruzi), P25779; purified cruzain, Z-FR-AMC fluorescence, 0.01% Triton; Potency, µM, for the others: max response, negative = inhibition, actives largely listed as inhibitors; 200,000 tested, 0.43% active;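 note: plate controls were neutral wells for no effect and buffer without enzyme for full effect; nearly all actives have a fitted effect of over 40% in size; top concentration of the series not given in the record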
Target sequence (P25779 123-467 limits assumed): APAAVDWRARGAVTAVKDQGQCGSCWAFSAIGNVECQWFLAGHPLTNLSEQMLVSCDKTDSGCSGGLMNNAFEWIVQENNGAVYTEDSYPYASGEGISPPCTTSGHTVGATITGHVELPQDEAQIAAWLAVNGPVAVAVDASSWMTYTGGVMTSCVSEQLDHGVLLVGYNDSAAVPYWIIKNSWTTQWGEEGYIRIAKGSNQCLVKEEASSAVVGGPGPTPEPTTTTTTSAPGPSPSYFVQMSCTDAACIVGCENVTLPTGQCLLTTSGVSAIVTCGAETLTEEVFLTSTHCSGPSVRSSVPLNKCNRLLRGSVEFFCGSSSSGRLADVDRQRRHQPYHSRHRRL
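Sodium acetate buffer (100 mM, pH 5.5) containing 5 mM DTT and 0.01% Triton X-100 hosted 1.5 nM cruzain and test compound for 15 min at room temperature. Cleavage of 2 uM Z-FR-AMC was then tracked by fluorescence.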
2A StopGo: High Throughput Screening for Foot and Mouth Disease Virus Antivirals; human cells with a luciferase reporter of 2A StopGo recoding; control for the full effect not named in the record; Potency, µM (highest dose often 57.9 µM), for inactives: top-dose signal change, negative = less light; 410,000 tested, 1.2% active; AID 1159524, 2015; active = well fitted falling curve with a large enough effect; inconclusive = small, poorly fitted or top-dose-only effect; inactive = no such curve, though single readings can be large or run the other way; tested in HEK293T cells; note: nearly all actives have a fitted effect of over 45% in size; luciferase light after 4 h
Cruzain inh noDet: qHTS Assay for Promiscuous and Specific Inhibitors of Cruzain (without detergent) | purified cruzain, Z-FR-AMC fluorescence, no detergent | Cruzipain (Trypanosoma cruzi), P25779 | Potency, µM, for the others: max response, negative = inhibition, actives largely listed as inhibitors | 200,000 tested, 2.3% active | AID 1476, 2009;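 note: plate controls were enzyme without inhibitor for no effect and buffer without enzyme for full effect; nearly all actives have a fitted effect of over 40% in size; top concentration of the series not given in the record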
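Purified cruzain at 1.5 nM, pre-incubated 15 min with compound at room temperature in 100 mM sodium acetate pH 5.5, 5 mM DTT, 0.00005% Triton X-100. Reaction started with 2 uM Z-FR-AMC; AMC fluorescence increase over 60 s gives rate.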
Starred values were filed as active, the others as inactive; ? = inconclusive; & = joins results of further samples; [ ] = dose if it differs, or a comment. Unless noted, calls come from the whole dose curve; as a rule, active = well fitted curve in the direction sought with a large enough effect; inconclusive = small, poorly fitted or top-dose-only effect, or another doubt; inactive = no such curve, though single readings can be large; an effect the other way counts as inactive or inconclusive. Unless noted, % is set by controls: 0 for no effect and ±100 for the full control effect; potency is the fitted concentration of half-maximal effect.

SMILES | Cruzain inh Det | 2A StopGo | Cruzain inh noDet
O=C(Oc1ccccc1)N1CCC[C@@]2(CCN(c3ccccc3)C2)C1 | -1.8% | -25.3% | -21.8%
COc1cccc(-c2cc(NCc3cccc(C)c3)ncn2)c1 | -1.5% | ? | -2.9%
CC(=O)N1CCC2(CC1)CN(c1ccccc1)C2 | 0.7% | -10.5% | 11.3%
COc1ccccc1-c1cncnc1Nc1ccccc1 | 0.3% | -20.2% | 7.9%
CCN1C[C@]2(COC(=O)c3ccccc3N3C(=O)C[C@H](C)C3=O)CC[C@H](OC)[C@@]34[C@@H]5C[C@H]6[C@H](OC)[C@H]5[C@](O)(C[C@@H]6OC)[C@@](O)([C@@H](OC)[C@@H]23)[C@@H]14 | 1.4% | -10.6% | 0.6%
Cc1ccccc1-c1cncnc1N1CCN(C)CC1 | 5.9% | -15.4% | 2.5%
Cn1c(=O)cnc2cnc(Oc3ccccc3)nc21 | 1.9% | -0.3% | 5.4%
CCNc1ncc2nc(-c3ccccc3)c(=O)n(CCOC)c2n1 | -24.1% | 8.3% | 23.3%
Cc1noc(C)c1-c1cncnc1NCc1ccccc1 | 0.4% | 16.4% | 12.1%
C#CCCCCCCCCCCCC(O)CC(O)COC(C)=O (stereo not given) | 0.8% | 1.9% | -2.2%
COc1ccc2c3c1OC1CC(O)C=C[C@@]31CCN(C)C2 (stereo not given in full) | 2.7% | -8.4% | 14.7%
Cc1cccc(CNc2nc(-c3ccoc3)nc3ccccc23)c1 | -6.4% | -4.7% | ?
O=C(c1csnn1)N1CCC[C@@]2(CCN(c3cccc(-c4ccccc4)c3)C2)C1 | -2.5% | -16.6% | 23.7%
CN1CCc2cc3c(cc2[C@@H]1[C@@H]1C(=O)Oc2c1ccc1c2OCO1)OCO3 | 7.9% | -11.4% | -12.3%
Nc1nc2nc(Cl)[nH]c2c(=O)[nH]1 | 5.2% | 0.9% | -1.1%
O=C(O)[C@H]1[C@H]2CN[C@H](C(=O)O)[C@H]21 | -4.1% | -3.0%&-10.9% | -4.5%
O=c1c(-c2cccs2)nc2cnc(N3CCNCC3)nc2n1Cc1cccs1 | -19.3% | -12.1% | -7.7%
COc1ccc(-c2nc3cnc(N4CCOCC4)nc3n(CCc3ccccc3)c2=O)cc1 | 0.1% | -14.7% | 4.7%
CN(C)c1ccc(-c2nc(-n3ccnc3)c3ccccc3n2)cc1 | -2.4% | -5.4% | ?
CN(C)C(=O)c1ccc(-c2ccc3ncnc(Nc4ccccc4)c3c2)cc1 | 0.6% | -2.3% | 0.8%
CN(C)Cc1ccccc1-c1nc(NCc2cccs2)c2ccccc2n1 | 2.4% | ? | -3.2%
Cc1noc(C)c1-c1ccc2ncnc(NC3CC3)c2c1 | 2.1% | -11.4% | -2.8%
COc1ccc(-n2c(=O)c(-c3cc(F)cc(F)c3)nc3cnc(N4CCOCC4)nc32)cc1 | 2.9% | 1.2% | -13.9%
COC(=O)COc1ccc(Cl)cc1Cl | 1.5% | 15.2% | 5.2%
COc1ccc(-n2c(=O)c(-c3cc(F)cc(F)c3)nc3cnc(N(C)C)nc32)cc1 | 8.6% | -19.6% | -0.6%
SMILES | Cruzain inh Det | 2A StopGo | Cruzain inh noDet
CN(C)c1ccc(-c2cncnc2Nc2ccc(F)cc2)cc1 | -1.7% | 1.3% | -14.9%
CC1O[C@@H](Oc2c(-c3ccc(O)c(O)c3)oc3cc(O)cc(O)c3c2=O)C(O)C(O)C1O (stereo not given in full) | -7.3% | -2.1% | 1.2%
Cc1cnc(CNc2ccnc(-c3cccc(C#N)c3)n2)cn1 | -2.3% | -0.4% | 1.0%
CC(C)CN1CCC2(CC1)CCN(C(=O)c1ccncc1)CC2 | 1.7% | -10.6% | -12.8%
COCCNc1ncnc2ccc(-c3ccc(C(=O)N(C)C)cc3)cc12 | -4.2% | -0.1% | -6.0%
O=S(=O)(c1ccccc1)N1CCC2(CCCN(c3ncccn3)C2)CC1 | -3.0% | -5.0% | -2.5%
CCOc1cccc(C(=O)c2ccc(O)c(O)c2O)c1 | -19.9% | 22.6% | -13.0%
COc1ccc(NC(=O)N2CCC3(CC2)CCN(C(=O)c2cccn2C)CC3)cc1 | 4.6% | -7.2% | 2.2%
Cn1c(=O)c(CCc2ccccc2)nc2cnc(OCc3ccccc3)nc21 | 3.3% | 18.1% | -2.6%
O=c1c(-c2ccc(F)cc2)nc2cnc(N3CCNCC3)nc2n1C1CC1 | -21.2% | -4.5% | -1.3%
Cc1nc2cnc(N3CCNCC3)nc2n(C2CC2)c1=O | -12.8% | -15.6% | -8.9%
CCNc1ncc2nc(-c3cccs3)c(=O)n(CCC#N)c2n1 | -6.8% | -20.2% | -3.8%
C[C@@H](CCCCC(=O)Nc1ccc(C(F)(F)F)cc1)NCCc1cnc[nH]1 | -2.7% | -6.7% | 5.5%
Cn1c(=O)c(-c2ccccc2)nc2cnc(N3CCOCC3)nc21 | 1.0% | 25.4% | 7.6%
O=S(=O)(c1ccccc1)N1CCC2(CCCN(Cc3ccccc3)C2)CC1 | 1.7% | -11.2% | -8.9%
COc1ccc(C(=O)N2CCC[C@@]3(CCN(C(=O)Nc4cccc(F)c4)C3)C2)cc1 | 1.1% | -0.8% | -6.8%
COc1cccc(Nc2ncc3nc(CCc4ccccc4)c(=O)n(C[C@H]4CCCO4)c3n2)c1 | -8.5% | -20.5% | -11.2%
N#Cc1cccc(-c2cncnc2NCc2cccnc2)c1 | 1.9% | -6.7% | 5.7%
COc1ccc(-c2cc(=O)c3c(O)cc(O[C@@H]4OC(COC5OC(C)C(O)C(O)[C@@H]5O)C(O)C(O)C4O)cc3o2)cc1 (stereo not given in full) | 4.1% | -3.3% | 9.3%
CCCCC/C=C\C/C=C\C/C=C\C/C=C\CCCC(=O)O[C@@H](CO)COCCCCCCCCCCCCCCCC | 2.5% | -6.6%[6.7 µM] | 9.9%
O=C1c2ccccc2C(=O)c2c(O)ccc(O)c21 | -2.6% | -19.7% | -10.0%
O=c1c(-c2cccc(Cl)c2)nc2cncnc2n1-c1ccccc1 | -2.0% | -10.6% | -27.6%
COc1cccc(-c2cncnc2NCCN2CCOCC2)c1 | 0.2% | -19.2% | -5.7%
COc1ccccc1CNc1ncnc2ccc(-c3ccoc3)cc12 | -7.9% | -15.7% | -8.6%
CC(=O)N1CCC2(CC1)CN(Cc1cc(C(F)(F)F)cc(C(F)(F)F)c1)C2 | -4.3% | -8.7% | -5.1%
SMILES | Cruzain inh Det | 2A StopGo | Cruzain inh noDet
COc1ccc(-c2nc3cnc(Nc4cccc(OC)c4)nc3n(Cc3cccs3)c2=O)cc1 | 1.7% | -10.7% | ?
COc1ccccc1-c1cncnc1NCCc1cnc[nH]1 | 3.4% | 44.2%[activator] | -0.3%
COc1ccc(Oc2ncc3nc(-c4cccs4)c(=O)n(-c4ccccc4)c3n2)cc1 | 4.8% | -9.7% | -3.4%
Cc1cnc(CNc2ncncc2-c2ccc(N(C)C)cc2)cn1 | -0.2% | -11.8% | -7.5%
O=C(O)Cc1cccc(OCCCN(Cc2cccc(C(F)(F)F)c2Cl)CC(c2ccccc2)c2ccccc2)c1 | ? | ? | 2.0%
N#CCCn1c(=O)c(-c2cccs2)nc2cnc(OCc3ccccc3)nc21 | 1.7% | 3.5% | 1.3%
COCCNc1cc(-c2c(C)noc2C)ncn1 | 5.5% | -19.3% | 7.2%
C=C1C2CC[C@@]3(C)C(c4ccoc4)OC(=O)C[C@@]13OC1CC(=O)C(C)(C)C(C(OC(C)=O)C(=O)OC)[C@@]12C (stereo not given in full) | -1.5% | -15.5% | 16.4%
CS(=O)(=O)Nc1cccc(-c2cncnc2NCc2ccccc2)c1 | 7.8% | -19.4% | -2.5%
O=c1c(-c2cc(F)cc(F)c2)nc2cnc(N3CCNCC3)nc2n1Cc1ccc(F)cc1 | -10.8% | -3.8% | -14.0%
CN(C)c1ncc2nc(-c3ccc(Cl)cc3)c(=O)n(C[C@H]3CCCO3)c2n1 | 4.5% | -9.6% | 2.8%
OCC1=CC[N+]2(Cc3ccccc3)CCC(O)[C@@H]12 (stereo not given in full) | 2.0% | -15.5% | -6.5%
N#Cc1cccc(NC(=O)N2CC[C@@]3(CCCN(C(=O)c4ccco4)C3)C2)c1 | 1.5% | -8.1% | 3.0%
COC(=O)N1CCC2(CCN(C(=O)Nc3ccc(OC)cc3)CC2)CC1 | 4.0% | 5.9% | 0.0%
Cn1c(=O)c(-c2ccc(Cl)cc2)nc2cnc(N3CCNCC3)nc21 | -3.4% | 0.6% | ?
CCC(C(N)=O)c1ccccc1 (stereo not given) | 0.1% | 10.0% | -13.8%
O=C1CCc2c(ccc3ccccc23)O1 | 3.7% | -18.3%[146 µM] | 2.8%
Cc1nc2cnc(N3CCN(C)CC3)nc2n(C)c1=O | ? | -2.8% | -17.6%
Cn1cccc1C(=O)N1CCC[C@@]2(CCN(c3cccc(-c4ccccc4)c3)C2)C1 | -5.2% | -18.1% | ?
CC1CCC(C(C)C)[C@H](O)C1 (stereo not given in full) | 7.1% | -7.7% | -2.7%
CN(C)c1ncc2nc(-c3ccc(Cl)cc3)c(=O)n(C3CC3)c2n1 | 3.1% | 24.3% | 5.7%
COc1cccc2c1CCC1=CC(=O)CC[C@@]12C | -2.2% | -18.2% | 6.2%
CC(C)(O)C1CC[C@@]2(C)C3CCC4[C@@]5(C)CCCC(C)(C)C5C(O)C[C@]4(C)[C@]3(C)CC[C@@H]12 (stereo not given in full) | 6.9% | 5.0% | -0.5%
CSc1ccc([C@H]2CN3CCC[C@H]3c3ccccc32)cc1 | -1.3% | -7.5% | ?
COc1ccc(C[C@H]2NC[C@H](O)[C@@H]2OC(C)=O)cc1 | -5.7% | ? | 6.6%

Entries shown so far that have a furan ring, fused or not (four):
SMILES | Cruzain inh Det | 2A StopGo | Cruzain inh noDet
Cc1cccc(CNc2nc(-c3ccoc3)nc3ccccc23)c1 | -6.4% | -4.7% | ?
COc1ccccc1CNc1ncnc2ccc(-c3ccoc3)cc12 | -7.9% | -15.7% | -8.6%
C=C1C2CC[C@@]3(C)C(c4ccoc4)OC(=O)C[C@@]13OC1CC(=O)C(C)(C)C(C(OC(C)=O)C(=O)OC)[C@@]12C (stereo not given in full) | -1.5% | -15.5% | 16.4%
N#Cc1cccc(NC(=O)N2CC[C@@]3(CCCN(C(=O)c4ccco4)C3)C2)c1 | 1.5% | -8.1% | 3.0%

(continued)
SMILES | Cruzain inh Det | 2A StopGo | Cruzain inh noDet
CN1CCN(c2ncc3nc(-c4ccc(Cl)cc4)c(=O)n(Cc4cccs4)c3n2)CC1 | -3.7% | -3.1% | 13.7%
N#CCCn1c(=O)c(-c2cccc(C#N)c2)nc2cnc(Oc3cccc(Cl)c3)nc21 | -3.0% | ? | ?
CC(C)(C)Cn1nc(-c2ccc(Cl)cc2)c2c(N)ncnc21 | -6.2% | -21.5% | 2.2%
CN(C)c1ccc(-c2cncnc2N(C)Cc2ccco2)cc1 | -0.6% | -7.2% | -3.1%
Cc1cnc(CNc2ncncc2-c2cccc(C#N)c2)cn1 | 2.2% | -9.7% | 1.3%
C[C@@H]1CCC2[C@](C)(CO)[C@@H](O)CC[C@]2(C)[C@]12CCC(CO)(CCO)O2 (stereo not given in full) | 4.9% | -7.4% | 4.2%
CS/C(N)=C(C#N)/C(C#N)=C(\N)SC | 0.9% | -13.4% | -9.6%
CN1CCN(c2ncc3nc(-c4cn(C)c5ccccc45)c(=O)n(C[C@H]4CCCO4)c3n2)CC1 | -1.1% | -11.9% | 10.3%
CC(=O)NCCNc1ncncc1-c1ccccc1CN(C)C | 3.9% | -9.1% | -1.0%
Fc1ccc(Nc2nc(-c3cccnc3)nc3ccccc23)cc1 | -9.6% | ? | 2.7%
Cc1cccc(CNc2ncncc2-c2ccc3c(c2)OCO3)c1 | -1.8% | -5.7% | 8.0%
CC(C)NC(=O)N1CC[C@@]2(CCCN(C(=O)c3cnccn3)C2)C1 | 0.9% | -12.8% | 5.3%
CNc1ccnc(-c2ccccc2OC)n1 | -0.5% | 1.1% | -13.0%
Cc1cccc(CNc2ncnc3ccc(-c4cccc(NS(C)(=O)=O)c4)cc23)c1 | -1.8% | -18.3% | 13.1%
COC(=O)N1CCC2(CCN(C(=O)Nc3cccc(C#N)c3)CC2)CC1 | 2.5% | -4.9% | -5.3%
COc1cccc(-c2nc(N3CCN(C)CC3)c3ccccc3n2)c1 | 0.9% | 1.1% | -8.4%
COc1ccc(NC(=O)N2CC[C@@]3(CCCN(C(=O)c4cnccn4)C3)C2)cc1 | 0.8% | -17.7% | 6.4%
O=C(O)Cc1cccnc1C(=O)O | -0.1% | ? | 0.4%

Only part of the results is shown. The share of hits here may be higher or lower than overall.
